# PINK1 modulator: PINK1 expression modulation; PINK1 immunofluorescence, high-content cytometry, 24 h; Potency, µM (highest dose often 76.6 µM), inactives show at the highest dose activation (PINK1 increase), most hits filed as activators; actives 0.2% (n = 410,000); AID 624263; active = well fitted activation curve with a large enough effect; inconclusive = small, poorly fitted or top-dose-only effect; inactive = flat fitted curve, though single readings scatter; cell line not stated here;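 further: potency means the concentration at half of the fitted maximal effect; % of control where 0% means no effect; nearly all actives have a fitted effect of over 65% in size; a mitochondrial uncoupler was the plate control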
#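 Readout is PINK1 immunofluorescence, quantified alongside mitochondrial, cell and nuclear markers by laser-scanning microplate cytometry. Cells from a stable line were exposed to compound titrations (5 concentrations) for 24 hours, with CCCP controls.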
# TRPML1 inh: inhibitors of human TRPML1 channel; Q9GZU1; TRPML1-inducible cells, Ca2+ dye fluorescence, FDSS; active compounds read low; inhibition of EC80 agonist-evoked calcium signal; activity change, negative = inhibition, % (concentration not given with the values); actives 0.02% (n = 390,000); AID 624415; in the data active means activity change below about -50%; inconclusive means about -30% to -50%; inactive means above about -30%;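 further: stimulus is agonist 54-4 at its EC80 concentration; on the % scale 0 is the no-effect control and ±100 the full control effect; the text of the record puts the active cut at -80%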
# Target sequence (Q9GZU1 whole entry, looked up): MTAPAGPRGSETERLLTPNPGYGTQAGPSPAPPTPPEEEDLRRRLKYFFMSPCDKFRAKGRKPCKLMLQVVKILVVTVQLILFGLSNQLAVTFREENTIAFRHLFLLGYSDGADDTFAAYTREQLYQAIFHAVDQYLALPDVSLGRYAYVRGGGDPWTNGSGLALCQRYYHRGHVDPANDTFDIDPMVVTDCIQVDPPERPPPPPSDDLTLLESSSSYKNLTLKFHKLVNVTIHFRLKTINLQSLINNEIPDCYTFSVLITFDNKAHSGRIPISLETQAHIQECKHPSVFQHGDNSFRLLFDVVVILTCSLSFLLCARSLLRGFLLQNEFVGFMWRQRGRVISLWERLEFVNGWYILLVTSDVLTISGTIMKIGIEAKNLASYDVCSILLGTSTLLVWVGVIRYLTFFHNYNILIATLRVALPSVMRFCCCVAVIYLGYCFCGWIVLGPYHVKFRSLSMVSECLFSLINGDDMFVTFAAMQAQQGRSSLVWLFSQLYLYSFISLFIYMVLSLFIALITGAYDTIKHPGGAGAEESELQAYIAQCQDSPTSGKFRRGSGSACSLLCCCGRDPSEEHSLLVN
#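 Calcium fluorescence in TRPML1-DL cells induced overnight with Tet: a 110 s read after compound pin addition, then a 110 s antagonist read after challenge with 54-4 at 4 uM final (EC80).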
# CtBP-E1A blk: CtBP/E1A binding inhibition; activity change, % (concentration not given with the values); AID 651724; AlphaScreen GST-E1A/His-CtBP binding, 1536-well; active compounds read low; control for the full effect not named in the record; actives 0.49% (n = 340,000); in the data active means activity change below about -65%; inconclusive means about -30% to -65%; inactive means above about -30%; further: on the % scale 0 is the no-effect control and ±100 the full control effect
#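 GST-E1A and His-tagged CtBP (125 nM each as 5X stock) were preincubated with pin-transferred compound for 2 h at 37 °C in the dark, then glutathione donor and nickel acceptor beads were added for 1 h before AlphaScreen reading.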
# Six1-Eya2 blk: blocks human Six1 binding to Eya2; AlphaScreen GST-Six1/His-Eya2 binding, biochemical; active compounds read low; control for the full effect not named in the record; activity change, % (test concentration not listed); actives 0.56% (n = 360,000); AID 651725; in the data active = activity change below about -65%; inconclusive = about -30% to -65%; inactive = above about -30%; further: on the % scale 0 is the no-effect control and ±100 the full control effect
#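 GST-Six1 + His-Eya2 (5X stock: 250/500 nM); Tris pH 8.0, 300 mM NaCl, 0.05% BSA, 0.02% Tween 20; GSH donor/Ni acceptor beads; 1 h 37 °C dark; AlphaScreen readout.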
# TRPML1 ag: activates the human TRPML1 channel | activation, % (test concentration not listed) | TRPML1-expressing cells, Ca2+ dye fluorescence, FDSS; host cell line not named in the record; reference of the full effect not given here | AID 624414 | actives 0.12% (n = 410,000); in the data active = activation above about 50%; inconclusive = about 30% to 50%; inactive = below about 30%; further: 0% is about no effect; the text of the record puts the active cut at 80%
#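 TRPML1-DL cells, Tet-induced overnight (~16 h, 37 degrees C), loaded 45-90 min at room temperature with Ca8 no-wash calcium dye plus quencher. FDSS fluorescence: 10 s baseline, compound pin-transfer, 110 s agonist read, then EC80 54-4 (4uM final) and 110 s antagonist read.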
# D2 ag: human D2 receptor agonism in beta-arrestin assay | P14416 | DiscoveRx PathHunter D2 beta-arrestin, luminescence, 90 min; 100% = 57 uM dopamine signal | activation, % (no concentration beside the values) | actives 0.084% (n = 360,000) | AID 624465; in the data active = activation above about 40%; inconclusive = about 15% to 40%; inactive = below about 15%; further: compound concentration not given in the record; the text of the record calls up to 30% inactive
# Target sequence (P14416 whole entry, looked up): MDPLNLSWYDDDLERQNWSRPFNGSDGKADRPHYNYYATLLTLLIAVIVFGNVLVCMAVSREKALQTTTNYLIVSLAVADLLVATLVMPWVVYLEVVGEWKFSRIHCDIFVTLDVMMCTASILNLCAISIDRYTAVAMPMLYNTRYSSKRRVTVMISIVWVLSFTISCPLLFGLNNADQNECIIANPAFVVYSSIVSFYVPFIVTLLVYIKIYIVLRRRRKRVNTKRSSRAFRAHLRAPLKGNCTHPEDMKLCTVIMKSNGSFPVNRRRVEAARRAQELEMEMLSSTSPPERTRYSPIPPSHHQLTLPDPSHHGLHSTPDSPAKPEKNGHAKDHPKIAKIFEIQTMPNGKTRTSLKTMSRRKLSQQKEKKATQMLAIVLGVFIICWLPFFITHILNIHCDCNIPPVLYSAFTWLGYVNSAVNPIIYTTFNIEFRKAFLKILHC
#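 Agonist mode: compounds alone added to overnight-plated D2 PathHunter cells for 90 min at 37 C, with 57 uM final dopamine (EC100) defining full response. Beta-arrestin recruitment detected by chemiluminescent reagent, read after 1 h at ambient temperature.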
# Starred values were filed as active, the others as inactive; ? = inconclusive; . = not tested or not shown; [ ] = dose if it differs, or a comment.
# Below each compound – PINK1 modulator	TRPML1 inh	CtBP-E1A blk	Six1-Eya2 blk	TRPML1 ag	D2 ag
CC(=O)c1ccc(NC(=O)Cc2cccs2)cc1
    2.6%	-15.2	-0.3	-15.2	0.0	0.1
Cc1ccc(N(CC(=O)NC2CC2)S(=O)(=O)c2ccccc2)c(C)c1
    1.2%	-4.3	-24.2	5.5	0.5	-1.5
COc1ccc2oc(C(=O)OC(C)C(=O)N(C)c3ccccc3)c(C)c2c1 (centres undefined)
    1.2%	-9.4	-4.4	-4.1	2.1	-4.9
CCOc1ccc(NC(=O)c2c(NC(=O)CN3CCCC3)sc3c2CCC3)cc1
    2.0%	-0.9	8.4	-1.2	-0.1	-3.8
CC1CN(C(=O)CCc2cc(C(C)(C)C)c(O)c(C(C)(C)C)c2)CC(C)O1 (centres undefined)
    5.9%	?	2.5	7.2	1.3	1.0
Cc1onc(C(=O)N2C(C)CCCC2C)c1[N+](=O)[O-] (centres undefined)
    2.4%	-4.3	4.6	1.9	-0.1	0.6
CCCCN(Cc1ccc(C(=O)N[C@H](C(=O)O)C(C)C)cc1)C(=O)C(c1ccccc1)c1ccccc1
    1.1%	-6.6	-7.5	-9.3	1.0	4.9
COc1ccc(NC(=O)c2cc(C)on2)cc1OC
    12.6µM*	-1.0	1.8	1.1	0.0	0.0
CC(C)N1CCC(N2CCN(C3CCCC3)CC2CCO)CC1 (centres undefined)
    -0.3%	-1.3	.	15.3	-0.7	-0.8
O=C(COC(=O)c1cccs1)NCCC1=CCCCC1
    0.1%	21.2	-4.1	11.2	2.0	-0.7
COc1cccc(CNCCCSc2nnnn2C)c1OC
    0.1%	-15.7	.	.	-0.5	.
CN(C)N=C1c2cc(S(=O)(=O)N(C)C)ccc2-c2ccc(S(=O)(=O)N(C)C)cc21
    -0.9%	37.3	-15.8	-13.7	-0.5	-4.8
COc1nn(-c2ccccc2)c(=O)c(Cl)c1Cl
    -1.5%	-0.8	-4.8	33.3	0.9	-3.1
CCCn1c(SCC(=O)c2ccc3c(c2)OCCO3)nc2c1c(=O)n(C)c(=O)n2C
    0.5%[38.3 µM]	3.8	3.8	-0.5	-0.2	-0.4
Cc1nc(SCC(=O)CC(=O)OC(C)C)c(C#N)c(C)c1C
    4.1%	-1.0	2.2	-3.0	71.2*	-4.5
Cc1ccccc1N1CCN(S(=O)(=O)CC23CCC(CC2=O)C3(C)C)CC1 (centres undefined)
    1.1%	3.1	7.5	6.4	0.2	-1.9
CC1CCc2c(sc(NC(=O)c3ccc(N4C(=O)CCC4=O)cc3)c2C(N)=O)C1 (centres undefined)
    1.1%	6.6	-10.3	-1.9	0.7	-0.2
COc1ccc(C=CC(=O)c2ccc3cc(OC)c(OC)cc3c2)cc1OC
    -1.8%	-13.3	2.7	1.6	-0.4	4.8
Cc1ccc(S(=O)(=O)c2nc(-c3ccccc3)oc2N2CCCC2)cc1
    1.5%	-3.3	7.7	2.2	-0.4	-0.8
CCNS(=O)(=O)c1ccc2c3c(cccc13)C(=O)N2
    1.0%	-4.4	-0.7	-5.7	-0.8	-2.3
Cc1nn(-c2ccccc2)c2c1cc1c(=O)n(C)c(=O)nc-1n2-c1ccccc1F
    5.1%	16.1	9.2	-1.4	10.7	1.7
Cn1c(=O)c2c(ncn2CCCC(=N)N2CCOCC2)n(C)c1=O
    1.6%	16.2	8.0	1.9	-0.8	-0.1
CCOc1ccc(C2N3CC4(C(C)C)CN2CC(C(C)C)(C3)C4=O)cc1OC (centres undefined)
    0.0%	3.9	.	.	0.3	.
COc1ccc(Cl)cc1Nc1cc(C)nc2nc(-c3ccccc3C)nn12
    0.5%	-15.8	.	.	-0.8	.
COC(=O)c1sccc1NC(=O)c1ccc(OC)cc1OC
    0.4%	82.9	-20.2	-1.1	0.0	-0.6
CC(C)(C)c1ccc(Oc2ccc(NC(=O)CCCC(=O)O)cn2)cc1
    -0.7%	2.2	-1.0	-0.4	-0.1	-6.7
CC(C)(C)C(=O)N1CCC2CC1c1cc(Cl)ccc12 (centres undefined)
    2.4%	-13.5	10.4	2.5	2.3	2.6
CCOc1ccc(N2C(=O)CC(N3CCN(c4ccc(F)cc4)CC3)C2=O)cc1 (centres undefined)
    -0.2%	32.7	0.3	2.5	0.9	-4.4
Cc1ccc(C(=O)Nc2ccc(Br)c(C(F)(F)F)c2)cc1
    ?	17.9	8.8	16.3	3.3	0.7
COc1ccc(OC)c(CNS(=O)(=O)c2ccc(-c3cc(C(F)(F)F)on3)s2)c1
    1.3%	-9.5	.	.	0.3	.
Cc1ccc(NC(=O)Nc2cc(S(C)(=O)=O)ccc2Cl)cc1
    0.8%	-16.5	3.4	11.9	-0.2	1.0
CCOC(=O)N1CCN(C(=O)CSc2nnc(CNC(=O)c3ccccc3F)o2)CC1
    -0.6%	-3.3	4.5	3.3	-0.9	1.0
CCn1c(Cn2nnc(-c3ccccc3)n2)nnc1SCC(=O)Nc1ccc(C(C)=O)cc1
    -1.4%[38.3 µM]	-0.3	3.0	-0.3	0.8	-1.1
CCCCNC(=O)/C(=C\c1ccc([N+](=O)[O-])o1)NC(=O)c1ccccc1
    0.9%	8.6	.	-1.0	2.7	9.8
COCCCn1c(SCC(=O)Nc2ccccc2F)nnc1-c1ccoc1C
    -0.2%	3.3	4.1	0.6	0.0	-2.6
CCOc1ccccc1NC(=O)C1=C(C)NC(=O)NC1c1cccs1 (centres undefined)
    0.2%	1.2	12.5	1.5	-1.2	-1.2
Cc1ccc(NC(=O)Nc2ccc3c(c2)CCC3)cc1
    0.4%	3.0	-0.4	7.0	-0.4	-5.7
COc1ccc(C(=O)Nc2ccc(-c3nc4ncccc4o3)cc2C)cc1Br
    0.1%	14.1	.	.	1.2	.
CCOC(=O)Cc1csc(NC(=O)C2CCCCC2C(=O)O)n1 (centres undefined)
    -1.1%	-12.2	4.6	-0.8	-0.8	-1.5
Cc1ccc2c(C)c(C(=O)NCC3CCOCC3)oc2c1C
    5.2%	10.6	1.3	-0.3	-0.5	-1.6

# Ordered by value in CtBP-E1A blk (rising): four from the list above.
structure	PINK1 modulator	TRPML1 inh	CtBP-E1A blk	Six1-Eya2 blk	D2 ag
CC(C)(C)c1ccc(Oc2ccc(NC(=O)CCCC(=O)O)cn2)cc1	-0.7%	2.2	-1.0	-0.4	-6.7
Cc1ccc2c(C)c(C(=O)NCC3CCOCC3)oc2c1C	5.2%	10.6	1.3	-0.3	-1.6
Cc1ccc(NC(=O)Nc2cc(S(C)(=O)=O)ccc2Cl)cc1	0.8%	-16.5	3.4	11.9	1.0
Cc1nn(-c2ccccc2)c2c1cc1c(=O)n(C)c(=O)nc-1n2-c1ccccc1F	5.1%	16.1	9.2	-1.4	1.7

# (continued)
# Below each compound – PINK1 modulator	TRPML1 inh	CtBP-E1A blk	Six1-Eya2 blk	TRPML1 ag	D2 ag
CNC(=S)N(CCc1ccccc1)Cc1cc2cc(OC)c(OC)cc2[nH]c1=O
    2.5%	4.4	-9.0	-2.2	0.3	2.8
O=C(CSc1nnc(-c2ccccc2)n1Cc1ccccc1)N1CCCC1
    2.7%	21.1	1.7	-1.8	-0.6	-3.2
COc1ccc(-c2csc(N(CCc3ccc(OC)c(OC)c3)C(=O)COc3ccccc3)n2)cc1
    0.8%[38.3 µM]	74.9	-3.7	-11.8	0.1	0.6
CCC(C)[C@H](NC(=O)NCc1ccc(S(N)(=O)=O)cc1)C(=O)O (some centres undefined)
    1.7%	-0.8	1.0	-2.2	0.5	-2.6
CC(C)(C)OC(=O)NC1CCN(S(=O)(=O)c2ccc3c(c2)OCCO3)CC1
    0.2%	-13.7	-6.1	2.7	0.8	-1.6
COc1ccc(NC(=O)c2nc(SCc3ccc(F)cc3)ncc2Cl)cc1
    3.7%	-7.9	.	.	0.1	.
O=[N+]([O-])c1cccnc1Sc1ccc(Br)cc1
    -1.9%	41.7	-27.8	?	2.4	-0.2
COCCCNC(=O)CCCn1c(=O)[nH]c2ccccc2c1=O
    2.6%	0.7	-4.6	-1.5	-0.5	-3.1
Cc1cccc(C)c1NC(=O)C1c2ccccc2OCC(=O)N1CCCN1CCOCC1 (centres undefined)
    1.0%	.	3.6	1.5	-0.4	.
COc1ccc(CCC(=O)Nc2ccc(S(=O)(=O)NC3=NCCCCC3)cc2)cc1
    -1.0%	0.8	6.5	5.8	0.5	-3.5
COC(=O)c1nnn(-c2nonc2N)c1CSc1nc2ccccc2o1
    -2.7%[38.3 µM]	1.0	7.3	-2.6	0.1	-3.0
Cc1ccc(CN(C(=O)c2ccccc2[N+](=O)[O-])c2ccccn2)cc1
    -0.5%	3.7	.	.	-0.2	.
O=C(Cn1ccnc1)c1ccc(Cl)cc1
    -0.5%	.	-2.6	2.1	.	-2.9
Cc1cccc(C)c1N(CC(=O)NCc1ccc(F)cc1)C(=O)c1csnn1
    3.6%	1.0	8.3	2.4	0.6	-0.8
O=C(c1cc(S(=O)(=O)N2CCOCC2)ccc1Cl)N1CCN(c2ccccn2)CC1
    3.1%	-6.2	6.1	3.4	-0.9	2.8
N#C/C(=C\c1cccnc1)C(=O)Nc1cccc(Cl)c1
    2.4%	10.1	-2.9	-11.6	-0.7	-4.0
O=C(NCc1cccnc1)Nc1ccccc1C(F)(F)F
    1.3%	-15.2	3.8	13.0	0.2	-5.4
CN1C(C(=O)NCc2ccccc2)CC2Cn3c(nc4cc5ccccc5cc43)C21 (centres undefined)
    -0.1%	10.3	-9.1	-1.3	1.7	-3.2
CCCN(CCC)C(=O)CC(c1ccc(F)cc1)c1ccco1 (centres undefined)
    0.2%	8.6	7.9	-1.3	2.1	-5.8
S=C(Nc1ccc(Cl)cc1)Nc1ccc2c(c1)OCCO2
    1.6%	50.3	1.6	-4.4	0.1	0.5
CN1CCN(C(=S)NC(=O)c2cccc(S(=O)(=O)N(C)C)c2)CC1
    0.3%	-1.4	6.5	5.1	-0.4	-0.4
Cc1c(C)n(Cc2ccc(Cl)cc2)c2ccc(C(=O)NCCc3ccc(S(N)(=O)=O)cc3)cc12
    0.2%	-20.0	.	.	2.5	.
CN1CCN(C(=S)Nc2ccc(S(N)(=O)=O)cc2)CC1
    0.1%	15.0	0.4	6.0	0.8	-18.5
CC(=O)N1N=C(c2ccc(Br)cc2)OC12CCCC2
    8.9%	6.8	-0.2	2.2	-0.8	-2.9
Oc1ccc(-n2nnnc2SCc2ccccc2Br)cc1
    1.2%	-6.7	22.9	7.2	1.8	0.0
CCCCCCCNC(=O)C1(CC2CC(c3cccc(Br)c3)=NO2)CCN(C(=O)c2ccccc2)CC1 (centres undefined)
    0.7%	1.1	-0.2	-2.8	0.3	-0.8
CCCOc1ccc(NC(=O)CC2C(=O)N(c3ccccc3)C(=O)N2CCC(C)C)cc1 (centres undefined)
    0.0%	-3.8	.	.	3.1	.
Cc1ccc(/C=N/Nc2ccc(C(=O)O)cc2)o1
    -2.8%	-4.0	.	9.4	-0.4	?
CCc1ccc(N2CCn3c2nc2c3c(=O)n(CCc3ccccc3)c(=O)n2C)cc1
    0.8%	-27.5	.	.	1.8	.
